MLL AF4-AF9 inh: inhibitors of human MLL-AF4/AF9 interaction; inhibition, % at 10 µM; AlphaScreen, biotin-AF4 peptide binding to FLAG-AF9; P42568; 0.47% of 350,000 active;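 active = every replicate reaching a set inhibition limit, whatever the replicate mean, cut at about 25% in these data; inconclusive = mean inhibition reaches that limit but some replicates miss it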;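 note: 0% = plate neutral control median and 100% = total signal loss; the record names both 10 and 1 µM as test concentration; the first replicate is given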
Target sequence (P42568 whole entry, looked up): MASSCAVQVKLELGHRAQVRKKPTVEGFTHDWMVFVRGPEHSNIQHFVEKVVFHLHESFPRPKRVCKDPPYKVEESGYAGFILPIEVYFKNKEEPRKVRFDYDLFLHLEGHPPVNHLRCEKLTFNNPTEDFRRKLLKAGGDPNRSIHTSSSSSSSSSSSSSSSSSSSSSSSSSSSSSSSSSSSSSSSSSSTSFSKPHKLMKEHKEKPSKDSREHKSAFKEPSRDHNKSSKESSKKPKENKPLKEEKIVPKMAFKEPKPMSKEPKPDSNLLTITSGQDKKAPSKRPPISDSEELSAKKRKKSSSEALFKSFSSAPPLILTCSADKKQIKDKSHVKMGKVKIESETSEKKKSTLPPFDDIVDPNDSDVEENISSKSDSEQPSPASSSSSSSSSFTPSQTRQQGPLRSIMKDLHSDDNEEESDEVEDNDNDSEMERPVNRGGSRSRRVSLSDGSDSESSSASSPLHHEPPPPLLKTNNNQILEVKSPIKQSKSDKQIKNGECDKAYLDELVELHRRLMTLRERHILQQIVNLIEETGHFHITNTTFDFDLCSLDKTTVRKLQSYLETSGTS
LANA-H2A inh: blocks KSHV LANA binding to histone H2A/H2B; AID 2629; cell-free LANA-H2A/H2B peptide, fluorescence polarization; 0.6% of 320,000 active; Q9QR71; inhibition, % (concentration not given with the values); in the data active = inhibition mostly above about 10%, no sharp cut-off; inactive = mostly below about 6.7%;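 note: stock transfer was 7.5 nL into about 10 µL; 0% = median of vehicle wells and 100% = median of positive control wells; one replicate is shown; the record names a cut of 25% in any replicate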
Calb FLC: affects C. albicans growth with fluconazole | C. albicans CaCi-2 (fluconazole-resistant clinical isolate) + fluconazole, Alamar Blue growth, 48 h | growth inhibition, % (concentration not given with the values) | 0.57% of 300,000 active;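 active = most replicates above 75%; inconclusive = exactly half above 75%; inactive = most below 75%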;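 note: all wells also contain fluconazole at 8 µg/ml as a sub-toxic cotreatment; 0% = median of DMSO wells and 100% = median of geldanamycin control wells; wells of about 8 µL received 7.5 nL stock; the first replicate is given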
Vif TR-FRET: inhibitors of Vif binding to APOBEC3G peptide, primary screen, biochemical, TR-FRET, GST-Vif 1-94, biotin-A3G peptide, dose response retest (AID 1117319). TR-FRET GST-Vif / biotin-A3G peptide binding; higher % means a stronger effect; test concentration not given here; strong numbers were not always called active. inhibition, %, or IC50 in µM where a hit was titrated. 0.57% of 260,000 active;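 active = above the screen mean plus three standard deviations and confirmed in dose response; inconclusive = results disagree or hit not tested in dose response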;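 note: Vif residues 1-94 fused to GST binding biotinylated APOBEC3G peptide 110-148; 0% = full assay without inhibitor and 100% = GST in place of GST-Vif; retest series ran down from 100 µM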
A1 inh: inhibitors of the anti-apoptotic protein A1, read as caspase activation. MEF A1-2A-BIM cells, Caspase-Glo 3/7 luminescence, 3 h; percent of clofoctol response, vehicle zero. caspase activation, % (test concentration not listed). 0.066% of 330,000 active;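 active = over half of replicate activation scores above 10%, or exactly half above 10 with the replicate mean above 10; inconclusive = replicate mean below 10 yet half the replicates above 10; inactive = over half of replicates below 10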;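 note: wells of about 30 µL received 50 nL stock; many hits fall short of the cut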
RanGTP-Imp inh: inhibitors of RanGTP-importin-beta interaction, primary screen, biochemical, FRET, CFP-Ran, YFP-importin-beta, homogeneous. AID 2216. cell-free CFP-Ran/YFP-importin-beta FRET ratio. inhibition, % (test concentration not listed). 1.1% of 300,000 active;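 active = most replicates above 15%; inconclusive = exactly half above 15%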;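 note: 0% = DMSO wells and 100% = Ran loaded with GDP instead of GTP; wells of about 40 µL received 100 nL stock; the first replicate is given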
Beta cell apopt: blocks beta cell apoptosis; INS-1E cytokine-induced death, ATP luminescence, 48 h; percent of positive-control rescue, neutral wells zero; protection from apoptosis, % (concentration not given with the values); 0.8% of 300,000 active;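 active = all replicates at 75% or more, or half of them and the mean; inconclusive = half reach 75% but not the mean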;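 note: 0% = cytokine-treated negative control wells and 100% = positive control rescue; higher means more ATP so stronger rescue from cytokine killing; wells of about 40 µL received 100 nL stock; the first replicate is given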
T cruzi repl: T. cruzi replication inhibition. T. cruzi beta-gal in NIH3T3, luminescence, 90 h. inhibition, % (no concentration beside the values). 1.4% of 300,000 active. AID 1885;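 active = mean inhibition across valid replicates above about 55%, limit read from the data; inconclusive = mean below that limit but half or more replicates reach it; inactive = mean below it, under half of replicates reach it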;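 note: signal also drops with host cell toxicity which is not excluded here; 0% = plate median of DMSO wells and 100% = zero luminescence signal; higher percent means less beta-gal luminescence so fewer parasites; stock transfer was 50 nL into about 50 µL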
An asterisk follows results filed as active; ? = inconclusive; nt = no result given.

SMILES | MLL AF4-AF9 inh | LANA-H2A inh | Calb FLC | Vif TR-FRET | A1 inh | RanGTP-Imp inh | Beta cell apopt | T cruzi repl
CCCC(=O)Nc1ccc(NC(=S)NC(=O)c2cccs2)cc1 | 1.0 | 2.6 | -17.9 | 6.2% | -0.3 | -0.3 | -3.2 | 8.8
CCN(c1ccccc1)S(=O)(=O)c1cccc(C(=O)OCc2nc3sc(C)c(C)c3c(=O)[nH]2)c1 | -1.1 | -6.7 | -23.9 | nt | 0.9 | -1.3 | -1.2 | -4.6
Cc1ccc(C(C)C)cc1OCCN1CCCC1 | 4.4 | 2.4 | -4.9 | 2.3% | 1.4 | 3.1 | -4.0 | ?
CCOC(=O)c1c(NC(=O)c2cccs2)sc(C)c1C | nt | -5.7 | 11.7 | 32.9µM* | 0.6 | 2.0 | -2.9 | 9.8
COc1ccc(-c2csc(Nc3ccccn3)n2)cc1 | 1.5 | 5.6 | -5.7 | ? | -7.3 | -0.1 | 20.1 | 39.9
Cc1cc2sc(NC(=O)c3ccco3)nc2cc1Cl | 2.8 | 2.6 | 1.3 | -13.6% | -4.3 | 3.7 | 4.6 | -2.2
Cc1cc(Cn2nnc3ccccc32)c(O)c(C(C)(C)C)c1 | -1.0 | 7.3 | -7.3 | nt | 0.0 | 4.3 | 2.6 | 4.4
Cc1ccc2[nH]c(=O)c(COC(=O)c3ccccn3)cc2c1 | nt | -2.5 | -2.2 | -7.4% | 1.0 | -2.4 | nt | -1.2
Cc1ccc(N(CC(=O)NC2CCCC2)C(=O)CNC(=O)c2cccs2)cc1C | -2.8 | -13.3 | -2.1 | 1.2% | 0.1 | 10.6 | 4.6 | 28.2
Cc1cnc(NC(=O)c2ccc(-c3nc4ccccc4s3)o2)s1 | nt | 28.8* | 67.7 | -2.8% | -0.7 | 8.6 | 3.2 | 22.4
CCOc1ccc(CCNC(=O)CN2C(=O)NC3(CCc4ccccc43)C2=O)cc1OCC (stereo not drawn) | -0.4 | 1.5 | 4.1 | -5.5% | 0.2 | -1.1 | -2.2 | 1.3
NC(=O)c1ccc(-n2nnnc2SCC(=O)c2ccc(O)c(O)c2)cc1 | -3.7 | 4.6 | 3.6 | 24.1% | -0.5 | -5.1 | 2.9 | 2.2
CSc1nc2ncc3c(n2n1)CC(C)(C)CC3=O | -10.4 | 4.9 | 22.6 | -5.1% | -0.6 | ? | nt | -1.9
CCOC(=O)c1c(C)[nH]c(N=Nc2cc(C(=O)O)cc(C(=O)O)c2)c1C | -4.8 | -3.4 | 3.1 | 11.7% | -0.5 | ? | -3.4 | 9.1
COc1ccccc1NC(=O)c1ccc(NC(=O)COC(=O)c2cncc(Br)c2)cc1 | 1.3 | -0.9 | nt | nt | 0.8 | nt | 4.0 | nt
CCc1c(C)nc(N2CCN(c3ccc(OC)cc3)CC2)[nH]c1=O | 7.3 | 2.9 | -1.0 | -11.9% | 0.3 | 2.4 | -2.4 | -12.5
Cc1ccc2c(c1)-c1cc(C)nn1C(c1ccc3c(c1)OCO3)N2 (stereo not drawn) | nt | -1.2 | 5.8 | ? | -0.9 | 1.7 | 3.6 | -1.9
Cc1ccccc1-n1nc2c(c1NC(=O)/C=C\c1ccc3c(c1)OCO3)CSC2 | 0.2 | -4.5 | 38.0 | 4.4% | 0.0 | 0.4 | nt | 6.6
Cc1ccc(C(C(=O)NC(C)(C)C)N(Cc2cccs2)C(=O)c2ccc3c(c2)OCCO3)cc1 (stereo not drawn) | -4.5 | -4.2 | -13.2 | nt | 0.0 | -1.5 | -6.2 | -0.4
Cc1ccc(S(=O)(=O)NCC(=O)NCC(=O)NC(C)c2ccccc2Br)cc1C (stereo not drawn) | -2.5 | 1.0 | -1.6 | nt | 0.0 | -2.1 | -0.9 | 6.2
O=S(=O)(NCC(c1ccccc1)N1CCC(O)CC1)c1ccc(Cl)cc1 (stereo not drawn) | -2.8 | 4.7 | -11.6 | -4.8% | 0.0 | 12.7 | -5.3 | 13.6
CCCCNC(=S)NNC(=O)c1ccncc1 | -1.0 | nt | -9.1 | 10.1% | -0.6 | -1.0 | -22.8 | 5.6
OCCC1CN(Cc2cccn2-c2cccnc2)CCN1CCc1ccccc1 (stereo not drawn) | 5.2 | 1.9 | -1.4 | nt | 0.7 | 6.3 | -0.1 | 3.7
Cc1ccc(NC(=O)C[n+]2cc(-c3ccccc3)n3c2CCC3)c(C)c1 | 0.9 | 0.1 | -10.9 | -7.9% | -0.1 | -0.7 | -3.3 | 4.3
C/C(=N\N1CCN(c2ccccc2)CC1)c1ccco1 | nt | 0.6 | -8.6 | -4.8% | 0.8 | 3.9 | -5.1 | -5.6
COc1ccc(CC(=O)Nc2nc(C)cs2)cc1 | -6.0 | 2.6 | -29.9 | ? | -0.6 | 1.0 | -2.8 | -5.2
Cc1ccc(C2N(c3nccs3)C(=O)C3CCCN32)cc1 (stereo not drawn) | nt | 3.4 | -3.9 | 0.1% | 0.7 | -2.3 | 1.8 | -6.0
Cc1nc(C)c(C(=O)N/N=C/c2ccco2)s1 | -4.2 | -6.3 | -2.8 | -2.8% | 0.2 | -0.6 | 1.2 | 2.1
N[C@@H](CO)c1nnc([C@H](CCC(=O)O)NC(=O)C2CCNCC2)o1 | -2.1 | -2.3 | -6.4 | 8.3% | -0.2 | -1.5 | -4.9 | -2.0
N#Cc1c(NC(=O)CSc2ncnc3sccc23)oc(-c2ccco2)c1-c1ccco1 | nt | -0.1 | 13.1 | 0.95µM* | -0.7 | -4.8 | 1.7 | -5.0
Cc1cccc(NC(=S)NN2CCN(C)CC2)c1 | nt | 3.2 | 6.2 | 9.1% | 1.3 | -0.4 | 0.4 | -0.3
Cc1ccc(Cc2c(C)[nH]c(=S)[nH]c2=O)cc1 | -2.4 | 0.5 | -6.8 | -7.1% | -0.7 | ? | -1.5 | -0.6
Cc1ccc(S(=O)(=O)c2nc(-c3ccco3)oc2SCC(N)=O)cc1 | 2.3 | -5.4 | -0.2 | nt | 1.2 | 5.2 | -10.2 | -1.9
Cc1ccccc1CN1C(=O)c2ccccc2Sc2ccc(C(=O)NCCCN3CCOCC3)cc21 | 9.0 | 19.6* | 2.2 | nt | 0.4 | 2.6 | 6.5 | -11.6
O=C(COC(=O)c1ccco1)Nc1nc2ccc([N+](=O)[O-])cc2s1 | 0.5 | 0.4 | 40.5 | -3.6% | -2.4 | 3.6 | -3.0 | -7.6
CCCCN1C(=O)/C(=C(/C#N)C(=O)N2CCCC2)c2ccccc21 | -9.5 | -3.2 | -10.2 | 7.0% | 0.4 | 3.6 | 0.4 | -2.9
COc1ccc(CCNC(=O)c2cc(S(=O)(=O)N3CCOCC3)cn2C)cc1OC | -8.5 | 2.3 | -5.5 | nt | -0.1 | -1.5 | -3.7 | -4.9
COCCn1c(SCC(=O)NNC(=O)c2ccccc2)nc2ccccc2c1=O | -2.0 | -10.1 | -1.1 | nt | 0.2 | -0.2 | -6.1 | -14.6
CC(CCc1ccccc1)NC(=O)CNC(=O)N1CC(=O)Nc2ccccc21 (stereo not drawn) | 0.7 | -3.1 | 9.7 | 3.9% | 0.4 | 0.8 | 2.9 | -3.1
N#C/C(=C\c1ccc(F)c(F)c1)C(=O)NC1CCCCC1 | -2.4 | 0.1 | -2.2 | 4.0% | 0.7 | 1.0 | -2.3 | 21.6
COC(=O)c1cc(Cl)c(NC(=O)c2cc(OC)c(OC)c(OC)c2)cc1OC | nt | 8.1 | -20.4 | -4.1% | -0.5 | -0.7 | -8.2 | 19.2
COc1cc(Cl)c(C)cc1NC(=O)CSc1nnc(CCC(=O)O)c(=O)[nH]1 | -1.5 | 1.1 | -3.9 | 15.6% | 0.2 | nt | -3.2 | -9.9
CCOc1ccc(N(C(C)C(=O)NN=C2CCCCCCC2)S(C)(=O)=O)cc1 (stereo not drawn) | 1.7 | -2.3 | -2.7 | 3.3% | -0.3 | -0.3 | 0.7 | -6.5
CCN(CC)c1ccc(S(=O)(=O)N2CCOCC2)cc1NC(=O)CN1CCN(Cc2ccccc2)CC1 | 12.1 | -7.8 | -7.4 | -8.2% | -0.4 | 5.1 | 8.4 | 48.8
CN1C(=S)SC(C)(C)C1NO (stereo not drawn) | nt | 0.9 | -4.7 | -0.9% | 0.5 | 1.3 | -2.8 | -23.1
O=C(CP(=O)(c1ccccc1)c1ccccc1)Nn1cnnc1 | nt | -0.5 | -6.9 | 1.9% | -0.7 | 6.2 | -3.8 | -33.5
COc1ccnc(N2CCN(c3cccc(C(F)(F)F)c3)CC2)c1C#N | nt | 7.0 | -10.6 | -3.5% | -1.0 | -5.2 | -1.0 | 6.5
CS(=O)(=O)C1=NSC2=NC(=O)/C(=C\c3ccc(OC(=O)c4ccco4)cc3)C(=N)N21 | nt | -0.2 | 4.6 | nt | -6.2 | 4.7 | -6.8 | -8.7
COc1ccc(CC(=O)OCC(=O)NCc2ccccc2Cl)cc1OC | 0.4 | -3.0 | -16.9 | -8.7% | 0.1 | -1.5 | -3.2 | -8.4
CCCCNC(=O)COC(=O)c1ccc(NC(C)=O)cc1 | -1.1 | 2.2 | -4.6 | -4.1% | 0.4 | ? | -12.2 | -13.0
CN1/C(=C\C(=O)CN2C(=O)NC3(CCCCCC3)C2=O)C(C)(C)c2ccccc21 | nt | -3.4 | 3.0 | -8.8% | 2.7 | -3.4 | 112.7* | 37.9
COc1ccc(N2CC(C(=O)N/N=C/c3ccccc3)CC2=O)cc1 (stereo not drawn) | 0.5 | -1.5 | -5.1 | 1.6% | 0.2 | nt | -2.2 | -4.5
CC(C)Oc1ccc(C(=O)Nc2ccc3c(c2)n(C)c(=O)n3C)cc1 | -6.1 | 0.9 | 7.0 | nt | -0.6 | 5.9 | -10.9 | -2.5
COc1cc2c(=O)n(Cc3ccco3)c(=O)n(CC(=O)c3cccc(Br)c3)c2cc1OC | nt | -4.0 | 9.9 | -40.0% | 0.6 | 6.5 | 18.8 | 18.3
CCN(CC)S(=O)(=O)c1ccc2c(c1)nc(SCc1nc3ccsc3c(=O)[nH]1)n2CC | nt | -0.8 | 12.8 | 29.4% | -0.3 | 2.9 | -0.3 | 18.7
COC(=O)COc1ccc2occ(C(C)=O)c2c1 | 3.7 | 1.8 | -5.9 | 5.6% | -0.3 | 1.2 | -2.1 | 0.3
CNCCC(Oc1ccccc1OC)c1ccccc1 (stereo not drawn) | 1.5 | -3.2 | -14.2 | nt | 2.2 | -0.8 | nt | -16.4
O=S1(=O)CC(O)C(N2CCC(c3ccccc3)CC2)C1 (stereo not drawn) | nt | -0.1 | 4.2 | -1.3% | 0.7 | 6.8 | -0.9 | -20.8
O=C(COC(=O)c1ccc(S(=O)(=O)NCc2ccco2)cc1)Nc1ccccc1OC(F)F | nt | 5.5 | -8.9 | 11.7% | -0.2 | 0.8 | -4.4 | 11.5
CCOc1ccccc1N/C=C(\C#N)c1nc2ccccc2n1C | nt | -3.6 | -3.7 | -0.7% | 0.6 | -0.7 | 8.6 | 17.2
O=C(COc1nc2ccccc2nc1N1CCOCC1)NCC(F)(F)F | -0.8 | 0.0 | -7.5 | nt | 0.2 | -1.7 | -4.0 | -0.3
CC(C)C(C)(C#N)NC(=O)CSc1nncn1-c1ccccc1 (stereo not drawn) | -1.8 | -0.1 | -0.9 | 0.9% | -0.5 | 0.6 | 3.4 | -4.0

Bioassay records (PubChem BioAssay)
